TAR Tat displ: TAR RNA-Tat peptide displacers, HIV-1, primary screen, biochemical, FRET, FAM/TAMRA-labeled Tat. actives 0.6% (n = 100,000). HIV-1 TAR RNA, Tat peptide displacement FRET; active compounds read high. z-score (no concentration beside the values);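 also: score is relative to mean and SD of negative controls; some compounds called inactive have numbers as strong as hits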
CDC25B CDK2 inh: primary biochemical HTRF screen for blockers of M-phase inducer phosphatase 2 binding to CDK2/cyclin A | HTRF CDC25B-CDK2/CyclinA binding, anti-His/anti-Flag; active compounds read high | z-score (concentration not given with the values) | actives 0.72% (n = 94,000);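 also: score is relative to mean and SD of negative controls; strong numbers were not always called active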
* = called active by the depositor; nt = no result given; & = joins results of further samples.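 The calls were made as follows: active = z-score from 3 up in half or more of its runs; inactive = the rest.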

SMILES | TAR Tat displ | CDC25B CDK2 inh
CN(C)CCCNc1oc(-c2ccc(S(=O)(=O)N3CCc4ccccc4C3)cc2)nc1C#N | 11* | -1.5
COC(=O)c1cc2sccc2n1C(C)C(=O)N(C)c1ccc(F)cc1 (configuration not stated) | 0.62 | -0.63
COCCNC(=O)c1cnn2c(C)cc(C)nc12 | -0.32 | nt
Cc1csc2nc(CSc3ccccc3NC(=O)CSc3ccccc3)cc(=O)n12 | 0.43 | nt
Nc1nc(N2CCCCC2)nc(Nc2ccc(F)cc2)c1[N+](=O)[O-] | 2.4 | nt
COc1ccc(Nc2c3c(nc4ncnn24)CCC3)cc1Cl | 1.1 | nt
O=C(C1CCC1)N1CCc2cc(S(=O)(=O)N3CC=C(c4ccccc4)CC3)ccc21 | nt | -2.5
O=C(Nc1ccc2c(c1)OCCO2)C1CCCN1S(=O)(=O)c1cccc2cccnc12 (configuration not stated) | -2.5 | -1.7
Cc1ccc(C(=O)c2cn(Cc3ccccc3F)c3cc4c(cc3c2=O)OCCO4)cc1 | 1.1 | -1
O=C1CC(c2ccccc2)CC2=C1C(c1ccc(F)c(F)c1)Nc1ccccc1N2 (configuration not stated) | 0.48 | -0.64
CCc1ccc(C2N3CC4(CC)CN2CC(CC)(C3)C4O)cc1 (configuration not stated) | 0.05 | -0.44
CCCCN(C)C(=O)Cn1ncn2c(cc3sc(CC)cc32)c1=O | 0.19 | 0.31
C=CCOC(=O)C1=C(C)NC2=C(C(=O)CCC2)C1c1cc(Cl)c(O)c(OC)c1 (configuration not stated) | 0.59 | -0.55
CC1=C(C#N)C(c2cc3c(cc2Br)OCO3)C2=C(CC(c3ccc(Cl)cc3)CC2=O)N1 (configuration not stated) | 0.35 | -0.58
Cc1cc(C)c2[nH]c(CSc3ncn[nH]3)cc(=O)c2c1 | -0.82 | nt
Cc1nn(-c2ccc(F)cc2)c(-n2cccc2)c1C(=O)Nc1ccc2c(c1)OCCO2 | 0.17 | nt
Cc1cc(NS(=O)(=O)c2ccc3c(c2)CC(=O)N3)ccc1Br | 0.58 | -0.24
Cn1ncc2c(N3CCCC3)nc(N3CCCCC3)nc21 | 1.5 | nt
O=C(CCc1ccc(O)cc1)NNC(=S)NCCc1ccccc1 | nt | -1.6
COc1ccccc1-n1c(N)c(C(=O)NC2CCCCC2)sc1=S | 1.7 | -1.5
CS(=O)(=O)N(CCCc1ccccc1)CCS(=O)(=O)N1CCNCC1 | 1.2 | nt
O=c1ccn2c(n1)OC1[C@@H](O)[C@@H](CO)O[C@H]12 (some centres not stated) | 1.2 | 1.4
O=C(Nc1nc2ccc(F)cc2s1)c1cc(=O)c2ccccc2o1 | 2.9 | 2
Cc1nc2sccn2c(=O)c1S(=O)(=O)Nc1ccccc1F | 1.1 | nt
CCOC(=O)N1CCN(c2cc(N3CCOCC3)c3c4c(onc24)-c2ccccc2C3=O)CC1 | 0.27 | -0.93

Following part:
SMILES | TAR Tat displ | CDC25B CDK2 inh
O=c1cc(-c2ccc(O)cc2)oc2c([C@@H]3O[C@H](CO)[C@@H](O)[C@H](O)[C@H]3O)c(O)cc(O)c12 | 2.8 | nt
CC(C)(C)NS(=O)(=O)c1ccc2nc(NC(=O)C3CCCO3)sc2c1 (configuration not stated) | 1.7 | nt
O=C(Nc1ccccc1Br)C1CCCN(S(=O)(=O)c2cccc3nsnc23)C1 (configuration not stated) | 1.2 | 0.68
CC(C)(C)SCCNC(=S)NCCO | nt | -1.8
CN1CCc2c(sc3nc(NC(=O)c4ccc(OC(F)(F)F)cc4)sc(=O)c23)C1 | nt | -2.1
O=C(Nc1nccs1)c1cc(-c2ccncc2)n[nH]1 | -4.6 | nt
CCCn1cc2c(c1-c1ccc(OC)cc1)c(=O)n(C)c(=O)n2C | nt | -0.26
CC1Oc2ccccc2N(CC(=O)Nc2nnc(Cc3cn(C)c4ccccc34)s2)C1=O (configuration not stated) | 0.94 | nt
Cc1cc(NC(=O)C2CCN(c3nnc(-n4cccc4)s3)CC2)no1 | 1.5 | nt
CCN(CC)c1nn2c(=O)c(C(=O)NCc3ccc(SC)cc3)cnc2s1 | 0.96 | nt
Cc1nn(-c2nc3ccccc3[nH]2)c2c1C(c1cnn(C)c1C)CC(=O)N2 (configuration not stated) | 2.6 | nt
CNc1cc(C)nc(-c2csc(C)n2)n1 | nt | -0.56
CN(c1ccc(Br)cc1)S(=O)(=O)c1ccc2c(c1)NC(=O)CS2 | 2 | nt
Cc1ccc(-c2nc(SCc3cc(=O)c4ccc(C)cc4[nH]3)n[nH]2)cc1 | -7.6 | nt
COc1ccc(-n2c(Cn3c(=O)sc4ccccc43)nnc2SC(C)C)cc1 | nt | -1.8
COc1cc(C(=O)Oc2ccc(Cl)cc2Cl)cc(OC)c1OC | nt | -1.1
C=CCOc1ccc(C2N3CC4(C)CN2CC(CCC)(C3)C4=O)cc1 (configuration not stated) | nt | -0.44
O=c1cc(O)c2c(Cl)cc(Cl)cc2[nH]1 | nt | -1.3
CCCn1c(C2CC(=O)N(c3ccc(F)cc3)C2)nc2ccccc21 (configuration not stated) | 1.7 | -1.3
CCCNC(=O)CCS(=O)(=O)c1cc(Br)cc2c1N(C(C)=O)CC2 | nt | 0.08
CC1CCN(c2c(NCC3CCC(C(=O)N4CCc5ccccc54)CC3)c(=O)c2=O)CC1 (configuration not stated) | 2.6 | -2.2
COc1ccc(NC(=S)NC(C)(C)C)c([N+](=O)[O-])c1 | nt | 1.8
Cc1ccc(-c2cc3c4c(C)n(Cc5ccccc5)c(C)c4c(C)nn3c2)o1 | -0.55 | -1.4
CC(C)c1ccc(C2c3c(oc4ccc(F)cc4c3=O)C(=O)N2CCCN2CCOCC2)cc1 (configuration not stated) | -0.06 | 0.72
O=C1OC2(C(=O)c3ccccc3C2=O)/C(=C(\O)c2ccc(F)cc2)C1=O | nt | -1.6

An excerpt from above in order of number of heavy atoms, largest number first.
SMILES | TAR Tat displ | CDC25B CDK2 inh
CC(C)c1ccc(C2c3c(oc4ccc(F)cc4c3=O)C(=O)N2CCCN2CCOCC2)cc1 (configuration not stated) | -0.06 | 0.72
CC1Oc2ccccc2N(CC(=O)Nc2nnc(Cc3cn(C)c4ccccc34)s2)C1=O (configuration not stated) | 0.94 | nt
O=c1cc(-c2ccc(O)cc2)oc2c([C@@H]3O[C@H](CO)[C@@H](O)[C@H](O)[C@H]3O)c(O)cc(O)c12 | 2.8 | nt
CN1CCc2c(sc3nc(NC(=O)c4ccc(OC(F)(F)F)cc4)sc(=O)c23)C1 | nt | -2.1
Cc1ccc(-c2cc3c4c(C)n(Cc5ccccc5)c(C)c4c(C)nn3c2)o1 | -0.55 | -1.4
Cc1nn(-c2nc3ccccc3[nH]2)c2c1C(c1cnn(C)c1C)CC(=O)N2 (configuration not stated) | 2.6 | nt
O=C1OC2(C(=O)c3ccccc3C2=O)/C(=C(\O)c2ccc(F)cc2)C1=O | nt | -1.6
C=CCOc1ccc(C2N3CC4(C)CN2CC(CCC)(C3)C4=O)cc1 (configuration not stated) | nt | -0.44
CCCn1cc2c(c1-c1ccc(OC)cc1)c(=O)n(C)c(=O)n2C | nt | -0.26
COc1cc(C(=O)Oc2ccc(Cl)cc2Cl)cc(OC)c1OC | nt | -1.1
O=C(Nc1nccs1)c1cc(-c2ccncc2)n[nH]1 | -4.6 | nt
CNc1cc(C)nc(-c2csc(C)n2)n1 | nt | -0.56
O=c1cc(O)c2c(Cl)cc(Cl)cc2[nH]1 | nt | -1.3

The listing continues:
SMILES | TAR Tat displ | CDC25B CDK2 inh
Cn1c(=O)[nH]c(=O)c2c1nc(NCCO)n2CC(O)COc1ccc(Cl)cc1 (configuration not stated) | nt | -1.5
N#CCC(=O)Nc1ccccc1 | nt | -0.29
Cc1cc(NC(=O)CSc2nc3ccccc3c(=O)n2Cc2ccco2)no1 | 1.7 | 0.23
O=c1oc(-c2ccco2)nc2cc(Cl)ccc12 | 0.43 | 0.4
CCN1CCN(c2cc(C)nc3c(-c4ccc(F)cc4)cnn23)CC1 | 0.46 | -1.4
O=C(O)c1ccc(-n2nnnc2SCc2ccc(Cl)cc2)cc1 | 1.7 | nt
Cc1occc1-c1nnc(SC(C)C(=O)Nc2ccc(Cl)cc2F)o1 (configuration not stated) | 1.1 | 0.37
Cc1ccc(S(=O)(=O)NC2=NCN(CCN3CCOCC3)CN2)cc1 | -0.35 | 0.07
N/C(=N\NS(=O)(=O)c1ccccc1OC(F)(F)F)c1ccc(C(F)(F)F)cn1 | nt | -2.1
O=C1c2[nH]nc(-c3ccccc3O)c2C(c2ccc(OCc3ccccc3)cc2)N1CCCO (configuration not stated) | 0.49 | -1
CCOc1ccccc1NC1c2ccccc2C(=O)N1c1ccccn1 (configuration not stated) | 0.2 | 0.37
CN(C)CCNC(=O)c1ccc(Cn2nc(N3CCN(c4ccc(F)cc4)CC3)ccc2=O)o1 | 1.2 | nt
COCCCN(Cc1cccs1)S(=O)(=O)c1ccc(-c2ccc(=O)[nH]n2)s1 | 0.97 | nt
CCC(CC)C(=O)OCc1cc(=O)n2nc(C3CCCCC3)sc2n1 | -0.27 | nt
Cc1c(-c2cccc(NC(=O)Nc3cccc(Cl)c3)c2)nc2ncccn12 | nt | -1.1
Cc1cccc(NC(=O)C2CCN(c3ncnc4c3nc3n4CCCCC3)CC2)n1 | -0.32 | nt
Cc1ccc(-c2onc(C)c2C)cc1S(=O)(=O)Nc1ccc(F)cc1 | 1.5 | nt
CS(=O)(=O)Nc1ccc2[nH]c(=O)c(=O)[nH]c2c1 | 0.88 | 0.7
O=C(CSc1nc2ncccc2c(=O)n1CC1CCCO1)Nc1ccc(Br)cc1 (configuration not stated) | 0.96 | -1.7
O=C(c1ccc(NC(=O)N2CCSc3ncccc32)cc1)N1CCN(c2ncccn2)CC1 | 0.36 | nt
CC(C)C(=O)NNc1nc2c(c(=O)n(C)c(=O)n2C)n1Cc1ccc(Cl)cc1 | nt | -1.2
O=S(=O)(CCN1CCN(CCS(=O)(=O)c2ccccc2)CC1)c1ccccc1 | nt | -1.8
CC1(C)Cc2c(sc3ncn4nc(Cc5ccccc5)nc4c23)C(C)(C)N1 | 1.2 | -0.46
Cc1ccc(OCC(O)CN2C(=O)NC(C)(C)C2=O)c(C)c1 (configuration not stated) | -0.67 | -0.6
Cc1cc([N+](=O)[O-])nn1CC(=O)Nc1sc2c(c1C#N)CCC(C)C2 (configuration not stated) | nt | -2.1

Next records:
SMILES | TAR Tat displ | CDC25B CDK2 inh
O=C1OC2c3ccccc3C(=O)N2c2ccccc21 (configuration not stated) | nt | -1.7
CCOC(=O)c1oc2ccc(S(=O)(=O)N3CCCC3c3cccs3)cc2c1C (configuration not stated) | 1.3 | -1.7
COc1ccccc1-n1c(SCC(N)=O)nc2c(c1=O)C1(CCCCC1)Cc1ccccc1-2 | 0.44 | -1.6
Cc1nc(N2CCOCC2)cc(N2CCN(C(=O)Nc3ccc4c(c3)OCCO4)CC2)n1 | 0.68 | -1.9
CCCN1CCN(c2ncc3c(n2)CCN(Cc2ccc(F)cc2)C3)CC1 | 2.1 | nt
Nc1cc(=O)[nH]c2nnc(SCCc3ccccc3)n12 | 2.4 | 0.29&-0.27
O=c1c2nnn(Cc3ccccc3F)c2ncn1Cc1ccc(Cl)cc1 | 0.36 | -0.83
COc1cccc(N(Cc2c(F)cccc2Cl)C2=NC3CS(=O)(=O)CC3S2)c1 (configuration not stated) | 2.8 | -2.9
CC1(C)CC(=O)C2=C(C1)Nc1ccccc1N(C(=O)NCC1CCCO1)C2c1cccs1 (configuration not stated) | 1.4 | nt
CC1CC(C(O)c2ccccn2)C(=O)C(C(O)c2ccccn2)C1 (configuration not stated) | nt | 0
CC(=O)Nc1ccc(S(=O)(=O)Nc2cccc(C(=O)Nc3nccs3)c2)cc1 | nt | -0.89
COC(=O)C1=C(C)NC(=O)CC1c1ccccc1[N+](=O)[O-] (configuration not stated) | nt | -2.8
COc1cc(NC(=O)CS(=O)(=O)c2ccc3c(c2)S(=O)(=O)N=CN3)cc(OC)c1 | 1.6 | nt
Nc1nc(-c2ccccc2)nn1C(=O)c1cccnc1 | 0.23 | -1.1
Nc1nonc1C(=O)N1CCN(C(=O)c2ccco2)CC1 | 1.6 | -1.4
CCC(C)[C@H](N)c1nnc(SCC(=O)c2ccc(Cl)cc2)o1 (some centres not stated) | 0.66 | 0.46
COC(=O)c1ccc(C2C(C(=O)OCc3ccccc3)=C(C)NC3=C2C(=O)CC(C)(C)C3)cc1 (configuration not stated) | 0.87 | -0.41
O=C(c1ccc2c(c1)sc1nc(-c3ccccc3)cn12)N1CCN(C(=O)c2ccco2)CC1 | 2.2 | nt
Cc1oc2ccc(NS(=O)(=O)c3ccc(Br)cc3)cc2c1C(=O)OC(C)C | 2.8 | -2.6
COc1cc2c(cc1NC(=O)CN1C(=O)c3ccccc3C1=O)oc1ccccc12 | nt | -2.7
CN1C(=O)Cc2cc(S(=O)(=O)N3CCN(c4ccc(Cl)cc4)CC3)ccc21 | -0.7 | nt
COc1ccccc1OCCCn1c(C2CC(=O)N(c3cccc(SC)c3)C2)nc2ccccc21 (configuration not stated) | 2.5 | -0.26
CCc1ccc(CNc2cc(-n3nc(C)cc3C)ncn2)cc1 | 0.76 | nt
CC(C)N(Cc1nc(-c2ccc(Cl)cc2)no1)C(=O)C(C)(C)C | 0.58 | -1.1
COc1ccc(Cn2c(=O)c(C#N)cc3c(=O)n4ccccc4nc32)cc1 | 1.1 | -2

Further compounds:
SMILES | TAR Tat displ | CDC25B CDK2 inh
COc1ccc(-c2csc3ncnc(NCCc4ccc(OC)c(OC)c4)c23)cc1 | 1.5 | nt
COc1ccc(CN2C(=O)c3cccnc3C2=O)cc1S(=O)(=O)N1CCSc2ccccc21 | 1.1 | nt
Cc1cc(OC(C)C(=O)Oc2ccc(-n3cnnn3)cc2)ccc1Cl (configuration not stated) | -2.8 | -0.14
O=C1NC(c2ccc(O)cc2)C(C(=O)c2ccccc2)C(O)(C(F)(F)F)N1 (configuration not stated) | nt | -1.2
O=S(=O)(c1ccccc1)c1nnn2c1nc(NC1CC1)c1cc(Cl)ccc12 | 1.2 | -1.2
O=C(NCc1ccco1)C1CCCN(S(=O)(=O)c2ccc(-c3ccc(=O)[nH]n3)s2)C1 (configuration not stated) | -0.35 | nt

Assay outcomes (PubChem)
